Screens deposited in PubChem by several laboratories.
PABP FP inh: blocks human PABP binding to poly(A) RNA. P11940. fluorescence polarization. inhibition, % at 35 µM. actives 1% (n = 290,000). AID 2014;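 active = 50% or more with normal probe brightness, or confirmed in later tests; inconclusive = above 50% with abnormal brightness, or retests that disagree; inactive = below 50% or failed in later tests; about a fifth of its hits are not listed in these tables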;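 also: calls also rest on retests at 20 µM and on dose response follow-up; controls were probe without protein and protein plus probe with vehicle; some compounds called inactive have numbers as strong as hits; many hits fall short of the cut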
Yeast UUG start: alters start codon recognition fidelity in yeast; AID 602363; S. cerevisiae UUG-firefly luciferase reporter, luminescence/redox ratio; actives 0.13% (n = 350,000); activity score, % at 18.7 µM;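 active = replicate mean at a twofold rise or more, about +100% in these data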;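 also: firefly luciferase made from a UUG start codon reports start codon fidelity; reporter light over untreated wells divided by growth signal over untreated wells; some hits fall short of that in this replicate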
eIF4H inh: inhibitors of RNA binding by human eIF4H. inhibition, % at 35 µM. eIF4H fluorescence polarization binding assay. actives 0.94% (n = 290,000);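 active = 50% or more with normal probe brightness, or confirmed in later tests; inconclusive = above 50% with abnormal brightness, or retests that disagree; inactive = below 50% or failed in later tests; about a fifth of its hits are not listed in these tables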;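 also: calls also rest on retests at 20 µM and on dose response follow-up; 0% = protein and probe with vehicle and 100% = probe without protein; strong numbers were not always called active; many hits fall short of the cut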
CSC inhib: cancer stem cell inhibition; cancer stem cell-like cells viability, luminescence; inhibition, % at 7.5 µM; actives 1.1% (n = 300,000);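 active = mean at 75% or more and at least half the replicates too; inconclusive = mean and replicates disagree; tested in HMLE shEcad cells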;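 also: 0% = median of negative and 100% = median of positive control wells; the first replicate is given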
MT1-MMP act inh: blocks activation of human MT1-MMP | P50281 | HT1080 RFP-PRO-GFP cells, GFP/RFP ratio fluorescence, overnight; percent of plate control window, DMSO zero | actives 0.061% (n = 360,000) | GFP/RFP ratio change, % at 20 µM;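 active = GFP/RFP ratio change of at least 30% with cell ATP level not reduced by more than half and red fluorescence within 50% of control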; also: strong numbers were not always called active
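Compound: 20 µM single dose, 1% DMSO / System: HT1080 RFP-PRO-GFP cells / Controls: DMSO and RFP-L50D-GFP cell wells / Read-out basis: GFP/RFP fluorescence ratio / Schedule: overnight compound exposure at 37 °C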
Rce1 inh: yeast Ras-converting enzyme inhibition | calls only | AID 2563 | actives 0.27% (n = 290,000) | yeast membranes, quenched prenylated peptide cleavage fluorescence;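 active = fall in fluorescence gain of 50% or more versus controls, with final raw signal at or below 3038400; inconclusive = same 50% fall but final raw signal above 3038400; inactive = fall in fluorescence gain under 50%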;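 also: plate controls were neutral control wells for no effect and wells lacking membranes for full effect; tested at 10 µM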
Target sequence (Q03530 whole entry, looked up): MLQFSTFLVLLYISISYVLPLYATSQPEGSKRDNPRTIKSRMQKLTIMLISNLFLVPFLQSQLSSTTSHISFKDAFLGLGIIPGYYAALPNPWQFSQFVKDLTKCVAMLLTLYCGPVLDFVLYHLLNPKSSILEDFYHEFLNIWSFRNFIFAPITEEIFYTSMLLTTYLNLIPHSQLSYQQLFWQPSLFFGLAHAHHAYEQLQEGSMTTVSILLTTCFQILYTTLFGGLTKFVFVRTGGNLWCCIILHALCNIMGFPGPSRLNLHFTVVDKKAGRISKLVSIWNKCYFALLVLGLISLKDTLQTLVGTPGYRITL
HIV Env fusion: inhibitors of HIV Env-mediated cell fusion. HeLa-JRFL Env/CEM21 cell fusion, luciferase. inhibition, % at 12.3 µM. actives 1.1% (n = 360,000). AID 651610;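 active = mean replicate inhibition score of at least 50 and every replicate individually at or above 50; inconclusive = only one of the two criteria met; inactive = mean below 50 and not all replicates reaching 50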;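 also: 0% = plate neutral controls and 100% = maraviroc near 300 nM; one replicate is shown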
eIF4H inh retest: further read-out of eIF4H inh, marked with its call; inhibition, %; compound at 20 µM; confirmation average;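 mean of two retest wells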
PABP FP inh retest: recorded beside PABP FP inh, whose call it bears; inhibition, %; compound at 20 µM; confirmation repeats;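 mean of two retest wells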
MT1-MMP act inh RFP: further read-out of MT1-MMP act inh, marked with its call; RFP signal change, %; measured here: RFP expression control read;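 0 = vehicle wells; hits needed this value within 50% of zero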
The depositor's hits bear a star; i = inactive; ? = inconclusive; . = no result given; [ ] = dose if it differs, or a comment.

SMILES	PABP FP inh	Yeast UUG start	eIF4H inh	CSC inhib	MT1-MMP act inh	MT1-MMP act inh RFP	Rce1 inh	HIV Env fusion	others
O=C(Nc1ccc(F)cc1)N1CCN(C(=O)C2CCCO2)CC1 (centres undefined)	0	-5	-4	-1	2	4	i	.
Cc1ccc(S(=O)(=O)N2CCN(CC(=O)N/N=C/c3ccc(Br)s3)CC2)cc1	-20	-10	-16	13	-3	-2	i	8
CCCNC(=O)C1CCC(CNS(=O)(=O)c2cccc3nsnc23)CC1 (centres undefined)	1	-14	-10	.	0	1	i	-2
COc1ccc([C@@H]2[C@@H]3C(=O)N(C(C)(C)C)C(=O)[C@@H]3[C@]3(Cc4ccc(Cl)cc4)C(=O)N(c4cccc(C)c4)C(=O)N23)cc1	12	-35	-4	-4	0	-6	i	90*
COc1ccc(NC(=O)CN(C2CCCCC2)S(C)(=O)=O)cc1Cl	6	1	-8	3	4	-5	.	22
Cc1cc(=O)[nH]c(SCC(=O)Nc2nnc(SCc3ccccc3)s2)n1	-3	.	-2	24	7	-7	i	3
O=C(NCCc1ccccc1)C1CCC(=O)N(Cc2cccc(C(F)(F)F)c2)C1 (centres undefined)	-7	9	-10	-2	-2	0	i	16
COc1cc(C2NC(C(=O)O)Cc3c2[nH]c2ccccc32)cc(OC)c1OC (centres undefined)	-1	-11	11	-15	-11	-1	i	.
COc1ccc(OCCCC(=O)NCCc2ccccc2)cc1	-4	-18	9	.	4	7	i	-3
O=C(OCN1C(=O)c2ccccc2C1=O)c1cccc(OC(F)F)c1	-3	-17	-2	-5	0	1	i	-22
O=C(Nc1cccc(-c2nc3cccnc3s2)c1)c1ccc(Cl)nc1	-4	-9	-3	10	-2	-1	i	12
O=C(NC1CCCC1)C(c1ccncc1)N(Cc1cccs1)C(=O)c1csnn1 (centres undefined)	4	-15	0	-5	-7	0	i	.
C=C(C)Cn1c(CCNC(=O)c2ccco2)nc2ccccc21	9	-19	-8	0	1	3	i	3
Cc1ccsc1/C=C1/CN(C)Cc2c1nc1ccccc1c2C(=O)O	29	-15	27	1	-6	0	i	-14
Cc1ccc(-n2nc(C)c3c(C)c(CCC(=O)Nc4ccc(CN5CCCC5)cc4)c(C)nc32)cc1	-28	.	-6	?	.	.	i	15
N#CCCCSc1ncccc1-c1nc2ccccc2[nH]1	.	-16	.	4	14	-2	i	7
Cc1ccc(OCc2nnc(SCC(=O)N3C(C)CCCC3C)o2)cc1 (centres undefined)	-3	-8	-5	7	1	2	i	11
CC(C)[C@@H](C(=O)NC1CC1)N1C(=O)N2CCc3c([nH]c4ccccc34)[C@@]2(C)C1=O	8	-18	4	-13	-2	2	i	.
COc1ccc(CN2C(=O)c3cccc4cccc(c34)C2=O)cc1	1	-4	-6	-12	5	1	i	-6
COc1ccc(-n2cnc3cc(C(=O)NCC4CCCO4)ccc32)cc1 (centres undefined)	-5	5	-3	-2	0	1	i	-1
O=C(O)C1(Nc2ccc(Cl)cc2)CCCC1	.	2	.	.	1	0	.	-11
CC(C)Cc1ccc(S(=O)(=O)N2CCOCC2)cc1	-10	-14	-7	-3	0	-2	i	.
CC(C)(C)S(=O)(=O)/C(C#N)=N/Nc1ccc(S(N)(=O)=O)cc1	17	-9	-11	4	2	4	i	12
CCOc1cc(C(=O)OC(C)C(=O)Nc2ccccc2OC)ccc1OCC(=O)N1CCOCC1 (centres undefined)	.	11	.	.	-2	-5	.	-2
OCCC1CN(Cc2cccc3nonc23)CCN1C1CCCCC1 (centres undefined)	-1	-21	-4	-6	4	4	i	2
(more compounds)
SMILES	PABP FP inh	Yeast UUG start	eIF4H inh	CSC inhib	MT1-MMP act inh	MT1-MMP act inh RFP	Rce1 inh	HIV Env fusion	others
Cc1cc(NC(=O)COC(=O)COc2ccc(Cl)cc2C)c([N+](=O)[O-])cc1C	4	.	-4	-7	-2	-4	i	-37
O=C(c1noc2c1CCCC2)N1CCN(c2ccccc2)CC1	-2	.	-8	3	4	3	i	.
COCCn1c(SCC(=O)Nc2cccc(S(N)(=O)=O)c2)nc2cc(Cl)ccc2c1=O	5	.	-2	-9	-2	-5	.	9
c1ccc2c(Cn3ccnc3)c[nH]c2c1	-4	-16	8	-6	-5	4	i	-35
CCCn1c(SCC(=O)Nc2nnc(C)s2)nnc1C1CC1	14	-8	2	7	-1	4	i	-6
COc1cccc(C(C)N(C)Cc2nc(COc3ccccc3)no2)c1 (centres undefined)	9	.	-4	-6	-1	-2	i	6
Nc1nc2c(ncn2C2C[C@H](O)[C@@H](CO)O2)c(=O)[nH]1 (some centres undefined)	.	-4	.	1	0	2	i	6
C[C@H](C(=O)O)c1n[nH]c(=O)c2ccccc12	11	-27	-7	-6	-2	3	i	-83
COc1ccccc1C(=O)NCC(=O)N1CCN(c2ncccn2)CC1	.	-5	.	-6	-2	0	.	-8
O=C(c1cc2ccccc2o1)N1CCN(C/C=C/c2ccccc2)CC1	4	-8	-4	3	5	0	i	3
C=CCn1c(SCC(C)=O)nc2sc3c(c2c1=O)CCC3	-4	-14	-15	0	-1	1	i	9
OC(CSc1c(Cl)cccc1Cl)CN1CCN(c2ccccc2F)CC1 (centres undefined)	-8	-13	-5	6	-3	-2	i	0
O=C(OCn1ncc(Cl)c(Cl)c1=O)c1cccc(C(F)(F)F)c1	-7	-17	-6	23	-6	-26	i	.
O=C(COc1ccccc1)N1CCN(c2ncnc3c2cnn3-c2ccccc2)CC1	1	-9	5	-10	-2	-7	i	.
COCCn1c(SCCN2CCOCC2)nc2c1c(=O)[nH]c(=O)n2C	7	-13	-12	-9	-2	1	i	-7
CC(C)CNC(=O)c1ccccc1NC(=O)CCSc1ccccc1	-11	-7	-4	5	4	6	i	10
COC(=O)C1=C(N)Oc2cc(C)[nH]c(=O)c2C1c1ccccc1OC (centres undefined)	2	.	-5	-10	4	3	i	1
CCCNCCC(c1ccco1)c1ccccc1OC (centres undefined)	2	-16	-7	8	3	3	i	1
Cc1cccc(OCCSc2ncnc3nc[nH]c23)c1	-3	-14	-4	25	8	1	i	-65
Cc1cc(C(F)(F)F)nc(SCCN2CCOCC2)c1C#N	6	-9	14	-2	-19	1	i	21
CCN1CCN(CCOc2ccccc2-c2ccccc2)CC1	5	.	15	-9	-11	-8	i	1
CCN(CC(=O)Nc1cc(S(=O)(=O)N2CCCCC2)ccc1Cl)Cc1ccccc1	.	.	.	-10	-22	-21	i	30
CN1CCCC(OC(=O)c2ccccc2Br)C1 (centres undefined)	-1	-10	-2	-6	-2	4	i	0
CCN(C(=O)CSc1nnc(-c2cccs2)n1N)c1c(N)n(Cc2ccccc2)c(=O)[nH]c1=O	.	-26	.	2	-1	1	i	2
Cc1ccc(C(=O)NCC(c2ccco2)N2CCc3ccccc32)cc1 (centres undefined)	.	4	.	-7	10	-5	i	24

By substructure, the compounds so far with a tert-butyl group
SMILES	PABP FP inh	Yeast UUG start	eIF4H inh	CSC inhib	MT1-MMP act inh	MT1-MMP act inh RFP	Rce1 inh	HIV Env fusion	others
COc1ccc([C@@H]2[C@@H]3C(=O)N(C(C)(C)C)C(=O)[C@@H]3[C@]3(Cc4ccc(Cl)cc4)C(=O)N(c4cccc(C)c4)C(=O)N23)cc1	12	-35	-4	-4	0	-6	i	90*
CC(C)(C)S(=O)(=O)/C(C#N)=N/Nc1ccc(S(N)(=O)=O)cc1	17	-9	-11	4	2	4	i	12

Following part
SMILES	PABP FP inh	Yeast UUG start	eIF4H inh	CSC inhib	MT1-MMP act inh	MT1-MMP act inh RFP	Rce1 inh	HIV Env fusion	others
CN1CCN(C(=O)C[C@@H]2C[C@H]3c4cc(NC(=O)c5cccnc5)ccc4O[C@H]3[C@H](CO)O2)CC1	.	-12	.	.	-2	0	.	-6[16.7 µM]
CC1CC(C)CN(c2ncc3c(n2)CC(c2ccc(Cl)cc2)CC3=O)C1 (centres undefined)	-10	-2	0	17	-5	-1	i	-24
CC1CC(C)CN(CCCNC(=O)Cn2ncn3cccc3c2=O)C1 (centres undefined)	-2	.	-14	-3	0	1	i	-4
CCNC(=S)NNC(=O)c1cc(C)nc2ccccc12	12	-17	7	-4	-2	7	i	-1
CCn1c(=O)c([N+](=O)[O-])c(NCCc2ccc(OC)c(OC)c2)c2ccccc21	0	.	-7	26	2	-8	i	22
CC(=O)N(C)c1ccc(NC(=O)c2ccccc2C(=O)O)cc1	15	-3	-3	-5	3	5	i	-5
COc1cc2sc3ccc(-c4ccc(CN5CCOCC5)cc4)cc3c(=O)c2cc1OC	.	12	.	51	10	-8	.	-30
COc1ccc(CN2CCNC(=O)C2CC(=O)NCCCC2CCCC2)c(C)c1C (centres undefined)	57	12	12	-4	-2	1	i	19	eIF4H inh retest=-9;PABP FP inh retest=16
CS(=O)(=O)N(CC(=O)Nc1ccccc1F)C1CCCCC1	2	-12	9	-9	-2	0	i	-39
Cc1cc(C)cc(NC(=O)C2CCN(c3cnccn3)CC2)c1	14	.	-3	-14	1	2	i	-4
C=CCNC(=O)CN1CCN(C(c2ccccc2)c2ccccc2)CC1	10	-7	1	-21	-6	-2	i	-7
CCOC(=O)N1CCN(c2c(Nc3cc(C)[nH]n3)c(=O)c2=O)CC1	9	-1	3	-3	.	.	i	-9
N#CCC(=O)N1CC2(CC(c3cccc(NC(=O)COc4ccc(Cl)cc4)c3)=NO2)C[C@@H]1C(N)=O (some centres undefined)	0	-6	4	-6	4	4	i	32
c1ccc(-n2cc(CN3CCC(N4CCOCC4)CC3)c(-c3ccc4c(c3)OCO4)n2)cc1	-4	4	-1	-12	6	-4	i	14
O=C(Nc1ccc(F)cc1F)c1ccc(S(=O)(=O)N2CCCCC2)cc1	0	-13	-3	-10	2	-3	i	-130
Cc1cc(NC(=O)CSc2nnc(C)o2)no1	4	-18	6	-15	-3	-3	i	-3
COc1ccc(Cl)cc1C(=O)NC(C)C	-9	-14	2	-27	-1	3	i	-5
Cc1ccc(C(=O)Nc2nnc(-c3ccc(C(C)(C)C)cc3)s2)cc1	-4	-13	2	-2	1	5	i	.
COc1cccc(COC(=O)C2CCN(S(=O)(=O)c3ccc(Cl)cc3)CC2)c1OC	.	.	.	-11	6	1	i	.
Clc1cccc(Cl)c1NC1=NCCN1	7	.	7	-12	.	.	i	.
CCOC(=O)c1cccc(NC(=O)Cn2cnc3c2c(=O)n(C)c(=O)n3C)c1	-10	-9	-7	-3	1	-6	i	-19
COc1ccc(/C=N/NC(=O)c2ccc(N(C)S(=O)(=O)c3ccccc3)cc2)cc1OC	0	.	-7	.	4	0	i	11
Cc1cc(C)n(-c2ccc(C(=O)OCC(=O)NCc3ccco3)cc2)n1	1	-13	-2	-8	2	-2	i	.
Cc1ccc(OCC(=O)Nc2ccc(S(=O)(=O)N3CCCCC3)cc2)c([N+](=O)[O-])n1	8	-5	-5	-5	4	-6	i	9
c1cncc(-c2nnc(-c3ccco3)o2)c1	3	-3	-3	-15	3	3	i	-61
COc1ccc(/C(N)=N/OC(=O)c2cc(-c3ccccc3)nc3ccccc23)cc1	1	-11	-1	6	-5	-1	i	-22
CCCN(CC1CCCO1)C(=O)c1cc(COc2ccc(F)cc2F)on1 (centres undefined)	-3	-9	12	-7	-3	3	i	-1
O=C(CSc1nnc(COc2ccccc2)n1Cc1ccco1)NCc1ccco1	39*	.	50*	3	-12	5	i	.	eIF4H inh retest=73*;PABP FP inh retest=57*
COc1ccc(-c2sc3ccc(OC)cc3c2-c2ccc(OC)nc2)cc1	.	-14	.	45	3	0	.	21
Cc1ccc(NC2=C(C(=O)c3ccccc3)N(C)S(=O)(=O)c3ccccc32)cc1	-2	-16	-11	-1	-4	-11	i	-30

Not all compounds are listed, so the mix of outcomes need not match the whole.
